miR-21 FLuc: raises the signal of a miR-21 reporter. AID 2288. 340,000 tested, under 10 active. Potency, µM (highest dose often 38.3 µM), for inactives: at the highest dose reporter change, positive = more light. HeLa miR-21 FLuc reporter, luciferase, 48 h; active = well fitted rising curve with a large enough effect; inconclusive = small, poorly fitted or top-dose-only effect; inactive = no such curve, though single readings can be large or run the other way;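 further: % of control where 0% means no effect; miR-21 action dims this reporter so a rising signal means less miR-21 action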
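HeLa cells stably expressing CMV-driven firefly luciferase with a downstream miR-21 binding sequence, endogenously expressing miR-21, were treated with titrations (up to about 40uM final) for 48 hours at 37 degree Celsius. Luciferase luminescence was read after lysis.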
Rango complex inh: Rango-importin beta binding inhibition | Q14974 | 340,000 compounds, 0.031% hits | Potency, µM (highest dose often 92.2 µM), for inactives: top-dose inhibition of complex formation | Rango CFP/YFP FRET sensor + importin beta, 45 min; active = rising FRET ratio curve, often small or poorly fitted; inconclusive = mostly compound fluorescence or quenching in the first reads; inactive = flat curves in all reads;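 further: potency means the concentration at half of the fitted maximal effect; 0% = DMSO wells and 100% = buffer wells lacking importin beta; nearly all actives have a fitted effect of over 15% in size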
Target sequence (Q14974 whole entry, looked up): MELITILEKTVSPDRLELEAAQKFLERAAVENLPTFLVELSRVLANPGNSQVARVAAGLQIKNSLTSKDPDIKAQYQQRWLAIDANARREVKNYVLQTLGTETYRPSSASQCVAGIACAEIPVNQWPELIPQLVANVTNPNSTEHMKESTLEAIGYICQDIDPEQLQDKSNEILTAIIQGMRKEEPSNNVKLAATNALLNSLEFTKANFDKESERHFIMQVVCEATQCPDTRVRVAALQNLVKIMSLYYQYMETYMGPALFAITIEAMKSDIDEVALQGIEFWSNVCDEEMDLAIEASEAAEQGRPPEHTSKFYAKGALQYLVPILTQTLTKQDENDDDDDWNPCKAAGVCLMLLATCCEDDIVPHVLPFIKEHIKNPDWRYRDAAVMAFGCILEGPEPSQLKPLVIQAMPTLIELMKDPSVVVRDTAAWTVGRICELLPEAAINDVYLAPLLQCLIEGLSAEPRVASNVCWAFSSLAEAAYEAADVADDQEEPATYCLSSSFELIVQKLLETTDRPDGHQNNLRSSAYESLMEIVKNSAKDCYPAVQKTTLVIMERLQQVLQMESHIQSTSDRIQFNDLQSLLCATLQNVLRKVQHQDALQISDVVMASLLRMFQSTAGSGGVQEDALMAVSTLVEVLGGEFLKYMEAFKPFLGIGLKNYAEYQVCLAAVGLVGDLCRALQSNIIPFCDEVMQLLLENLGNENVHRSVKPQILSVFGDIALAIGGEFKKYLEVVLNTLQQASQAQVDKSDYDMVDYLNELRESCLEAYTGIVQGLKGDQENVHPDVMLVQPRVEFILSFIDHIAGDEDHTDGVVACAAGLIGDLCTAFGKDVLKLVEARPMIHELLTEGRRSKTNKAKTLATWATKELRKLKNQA
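FRET biosensor (snurportin 1 IBB flanked by EYFP and cerulean), 50 nM, with compound 5 min, then 0.125 microM importin beta in PBS, 1 mM DTT, 0.02% Tween-20, 0.1% BSA. CFP/YFP ratio read after 45 min at room temperature; pre-read flags interference.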
GLA inh pH 4.5: alpha-galactosidase A (human) inhibition, pH 4.5; P06280; purified enzyme, 4-MU-alpha-Gal fluorescence, pH 4.5; activity change, negative = inhibition, % at 105 µM; 230,000 tested, under 10 active; inconclusive = small, poorly fitted or top-dose-only inhibition, or a rising curve; inactive = flat fitted curve, though single readings scatter; no compound was filed as active;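 further: 0% = full activity with enzyme and -100% = basal without enzyme; dose as in the result columns while the protocol names 77 µM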
Rango dissoc inh: prevents RanGTP from dissociating the Rango-importin beta complex | 340,000 compounds, 0.071% hits | O95149+P62826 | Biochemical FRET Rango-importin beta, RanGTP-induced dissociation | Potency, µM (titrated, usually from 46.1 µM), without a hit: at the top dose activity change, negative = inhibition | AID 540253; active means falling FRET ratio curve, often poorly fitted, with flat reads before Ran was added; inconclusive means other falling curves, or compound fluorescence or quenching; inactive means flat or rising ratio curve;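 further: potency means the concentration at half of the fitted maximal effect; % of control where 0% means no effect; nearly all actives have a fitted effect of over 45% in size; -100% = wells without RanGTP and RCC1; the record marks most hits as doubtful in a second field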
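Quantitative HTS using a FRET biosensor: 0.1 uM Rango, 0.25 uM importin beta, 0.6 uM Ran, 2 mM GTP, 0.2 uM RCC1 final, PBS with DTT, Tween-20 and BSA. Post-read taken 45 min after Ran addition.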
* = called active by the depositor. The list is partial, so the mix of outcomes need not match the whole.

How did CC(=O)c1ccc(N2CCN(C(=O)c3cn(Cc4ccccc4)nc3-c3cccnc3)CC2)c(F)c1 do in these assays?
Rango complex inh: -3.8%; Rango dissoc inh: -1%

What do the screens show for `COc1ccccc1/C=C\C(=O)NCC(=O)N/N=C/c1ccc(O)cc1O`?
miR-21 FLuc: 15%; Rango complex inh: 0.7%; GLA inh pH 4.5: -1; Rango dissoc inh: 17%

What do the screens show for `Cc1c(C(=O)OCC(=O)N(C)Cc2ccccc2)oc2ccccc12`?
Rango complex inh: 1.7%; Rango dissoc inh: -16%

What do the screens show for `CC(=O)Nc1ccc(S(=O)(=O)N2CCC(C(=O)c3ccc(F)cc3)CC2)cc1`?
miR-21 FLuc: 23%; Rango complex inh: -1.3%; Rango dissoc inh: 3%

What do the screens show for `Cc1cc(O)c(N=Cc2cc3c(cc2[N+](=O)[O-])OCO3)cc1C`?
Rango complex inh: -0.3%; Rango dissoc inh: 3%

Results for COc1ccc(CNC(=O)CC2C(=O)NCCN2CC(C)(C)C)c(OC)c1 (stereo not given) ?
miR-21 FLuc: 2%; Rango complex inh: -1.3%; GLA inh pH 4.5: -7; Rango dissoc inh: -22%

What do the screens show for `O=S(=O)(c1ccc2c(c1)OCCO2)C1CCC(S(=O)(=O)c2c(F)cccc2F)CC1` (stereo not given)?
Rango complex inh: 0.5%; Rango dissoc inh: 1%

What do the screens show for `Cc1ccc(S(=O)(=O)CCNC(=O)Cc2ccccc2)cc1`?
miR-21 FLuc: -2%; Rango complex inh: -0.9%; GLA inh pH 4.5: 0; Rango dissoc inh: 3%

How did COc1ccccc1CC(=O)Nc1ccc(-c2noc(COc3ccc(Cl)c(C)c3)n2)cc1 do in these assays?
miR-21 FLuc: -7%; Rango complex inh: -2.5%; GLA inh pH 4.5: 2; Rango dissoc inh: -1%

What do the screens show for `COC(=O)NNC(=S)Nc1ccc(Br)cc1`?
miR-21 FLuc: 1%; Rango complex inh: -0.2%; GLA inh pH 4.5: 2; Rango dissoc inh: 13%

What do the screens show for `c1ccc2c(c1)sc1nnnn12`?
miR-21 FLuc: -4%; Rango complex inh: -0.8%; GLA inh pH 4.5: -1; Rango dissoc inh: 14%

What do the screens show for `Nc1n[nH]c2cccc(Cl)c12`?
miR-21 FLuc: 9%; Rango complex inh: inconclusive; GLA inh pH 4.5: -12; Rango dissoc inh: 2%

How did COc1ccc(C)cc1NS(=O)(=O)c1cn(C)nc1C do in these assays?
miR-21 FLuc: -1%; Rango complex inh: 7.3%; GLA inh pH 4.5: 4; Rango dissoc inh: 8%

Results for O=C(CCS(=O)(=O)c1ccccc1)NC1CCCC1 ?
miR-21 FLuc: -1%; Rango complex inh: 3.4%; Rango dissoc inh: 15%

How did COCc1cc(=O)[nH]c(N2CCN(c3ccccc3OC)CC2)n1 do in these assays?
miR-21 FLuc: -1%; Rango complex inh: 0.1%; Rango dissoc inh: -5%

How did Cc1ccccc1NC(=S)N(CCc1c(C)[nH]c2ccc(F)cc12)Cc1cccnc1 do in these assays?
miR-21 FLuc: 15%; Rango complex inh: -1.4%; GLA inh pH 4.5: -1; Rango dissoc inh: -20%

How did CC(C)CCn1c(N2CCN(Cc3ccccc3)CC2)nc2c1c(=O)[nH]c(=O)n2C do in these assays?
miR-21 FLuc: -4%; GLA inh pH 4.5: -4

How did CC1=CC(C)(C)n2c(O)c(C3=NC(=S)NC3=O)c3cc(OC(=O)c4cccc5ccccc45)cc1c32 do in these assays?
miR-21 FLuc: -9%; Rango complex inh: -2.2%; GLA inh pH 4.5: -8; Rango dissoc inh: -1%

How did Cc1cccc(S(=O)(=O)NCCC(=O)OC(C)C(=O)NC(=O)NC2CCCCC2)c1 (stereo not given) do in these assays?
miR-21 FLuc: -6%; Rango complex inh: 1.5%; GLA inh pH 4.5: -8; Rango dissoc inh: -14%

How did CCOC(=O)c1ccc(NC(=S)N(CCCN2CCCC(C)C2)Cc2ccco2)cc1 (stereo not given) do in these assays?
miR-21 FLuc: 1%; Rango complex inh: -2.0%; GLA inh pH 4.5: -18; Rango dissoc inh: 5%

How did CCn1c(O)c(N=NC(=O)C2C(=O)NCC2c2ccccc2)c2ccccc21 (stereo not given) do in these assays?
miR-21 FLuc: 0%; Rango complex inh: 4.6%; GLA inh pH 4.5: 2; Rango dissoc inh: -17%

How did CC1CCCN(C(=O)Cc2cccc3ccccc23)C1 (stereo not given) do in these assays?
miR-21 FLuc: -18%; Rango complex inh: 2.3%; Rango dissoc inh: -10%

Results for CCCOc1ccc(-c2c(C(=O)N/N=C/c3ccc(C)cc3)nnn2-c2nonc2N)cc1 ?
miR-21 FLuc: -1%; Rango complex inh: -1.1%; GLA inh pH 4.5: -9; Rango dissoc inh: 5%

How did CCOc1ccc(C(=O)Nc2ccc(S(=O)(=O)Nc3cc(C)on3)cc2)cc1 do in these assays?
miR-21 FLuc: -20%; Rango complex inh: inconclusive; Rango dissoc inh: -16%

An excerpt from above in order of heavy-atom count, smallest number first.
How did COc1ccc(C)cc1NS(=O)(=O)c1cn(C)nc1C do in these assays?
miR-21 FLuc: -1%; Rango complex inh: 7.3%; GLA inh pH 4.5: 4; Rango dissoc inh: 8%

How did Cc1cccc(S(=O)(=O)NCCC(=O)OC(C)C(=O)NC(=O)NC2CCCCC2)c1 (stereo not given) do in these assays?
miR-21 FLuc: -6%; Rango complex inh: 1.5%; GLA inh pH 4.5: -8; Rango dissoc inh: -14%

How did CCOC(=O)c1ccc(NC(=S)N(CCCN2CCCC(C)C2)Cc2ccco2)cc1 (stereo not given) do in these assays?
miR-21 FLuc: 1%; Rango complex inh: -2.0%; GLA inh pH 4.5: -18; Rango dissoc inh: 5%

How did CC1=CC(C)(C)n2c(O)c(C3=NC(=S)NC3=O)c3cc(OC(=O)c4cccc5ccccc45)cc1c32 do in these assays?
miR-21 FLuc: -9%; Rango complex inh: -2.2%; GLA inh pH 4.5: -8; Rango dissoc inh: -1%

Remaining list, next part.
Results for Cc1cccc(NC(=O)C2CCN(C(=O)c3ccccc3C)CC2)n1 ?
Rango complex inh: 2.2%; Rango dissoc inh: 69%

What do the screens show for `Nc1cc(-c2cccc(F)c2)nn1S(=O)(=O)c1cccc2nsnc12`?
miR-21 FLuc: -8%; Rango complex inh: -4.4%; GLA inh pH 4.5: -4; Rango dissoc inh: -10%

What do the screens show for `CC(C)C[C@@H](CNCC(=O)[C@H](CC(=O)O)NC(=O)c1[nH]cnc1C(=O)N[C@H](CN)CC(C)C)NC(=O)c1nc[nH]c1C(=O)N[C@@H](C)C(=O)O`?
Rango complex inh: -0.7%; Rango dissoc inh: -7%

Results for CCOc1ccc(OCCSc2nc3ccccc3n2CC(=O)O)cc1 ?
miR-21 FLuc: 3%; Rango complex inh: -3.1%; Rango dissoc inh: -4%

What do the screens show for `CC1=C(C(=O)OCC(C)C)C2(O)C(=O)c3ccccc3C2(O)N1` (stereo not given)?
miR-21 FLuc: -8%; Rango complex inh: 3.7%; GLA inh pH 4.5: 1; Rango dissoc inh: -6%

What do the screens show for `CC(C(=O)Nc1cc(C(F)(F)F)ccc1N1CCOCC1)N1C(=O)C2CC=CCC2C1=O` (stereo not given)?
miR-21 FLuc: -3%; Rango complex inh: -2.1%; GLA inh pH 4.5: 1; Rango dissoc inh: 10%

Results for Cc1cc(NC(=O)c2ccc([N+](=O)[O-])cc2Cl)ccc1NC(=O)c1ccco1 ?
miR-21 FLuc: -7%; Rango complex inh: -2.5%; GLA inh pH 4.5: 0; Rango dissoc inh: 0%

What do the screens show for `Cc1ccccc1NC(=O)CSc1ccncc1`?
miR-21 FLuc: -12%; Rango complex inh: -2.1%; GLA inh pH 4.5: -1; Rango dissoc inh: -2%

What do the screens show for `COc1cc(C2C3=C(COC3=O)Oc3cc4c(cc32)OCO4)cc(OC)c1OC` (stereo not given)?
Rango complex inh: -3.3%; Rango dissoc inh: 1%

What do the screens show for `O=C(O)CC1=C(c2ccc(F)cc2)CCC1=O`?
miR-21 FLuc: -3%; Rango complex inh: 2.9%; GLA inh pH 4.5: -1; Rango dissoc inh: -10%

Results for CC(C)CC1Nc2ncnc(N3CCN(c4ccccn4)CC3)c2N(Cc2ccc(Cl)cc2)C1=O (stereo not given) ?
Rango complex inh: -2.4%; Rango dissoc inh: 7%

How did c1ccc(CCC2CCCCN2Cc2nc(C3CC3)no2)cc1 (stereo not given) do in these assays?
miR-21 FLuc: 2%; Rango complex inh: 0.5%; GLA inh pH 4.5: 1; Rango dissoc inh: -17%

How did C=CCN1CCc2cc(O)c(O)cc2C(c2ccccc2)C1 (stereo not given) do in these assays?
Rango complex inh: 0.9%; GLA inh pH 4.5: -3; Rango dissoc inh: -12%

How did CCCCn1nc(C(=O)Oc2ccc3c(C)cc(=O)oc3c2)c2ccccc2c1=O do in these assays?
miR-21 FLuc: -5%; Rango complex inh: inconclusive; GLA inh pH 4.5: inconclusive; Rango dissoc inh: -29%

What do the screens show for `COc1ccc2nc(SCC(=O)N3CCNC3=O)[nH]c2c1`?
miR-21 FLuc: -26%; Rango complex inh: inconclusive; GLA inh pH 4.5: -4; Rango dissoc inh: -1%

How did Cc1cccc(NC(=O)c2ccc(Cl)c(S(=O)(=O)N3CCc4ccccc43)c2)n1 do in these assays?
Rango complex inh: 1.4%; Rango dissoc inh: -12%

Results for CCOC(=O)Nc1ccc2c(c1)Sc1ccccc1N2C(=O)CCN1CCOCC1 ?
miR-21 FLuc: -12%; Rango complex inh: 1.6%; GLA inh pH 4.5: -8; Rango dissoc inh: inconclusive

What do the screens show for `Cc1ccc(S(=O)(=O)N2CCCCC2)cc1NC(=O)CSc1ncccn1`?
Rango complex inh: -2.4%; Rango dissoc inh: 6%

Results for COC(=O)c1sc(NC(=S)NC(=O)c2cc(OC)c(OC)c(OC)c2)nc1C ?
miR-21 FLuc: 0%; Rango complex inh: -5.7%; Rango dissoc inh: 9%

What do the screens show for `CCN(CC)C(=O)c1ccc(CS(=O)(=O)c2ccc(Br)cc2)cc1`?
miR-21 FLuc: -3%; Rango complex inh: 2.2%; Rango dissoc inh: -8%

Results for Cc1nnc(SCCn2c(N3CCC(C)CC3)nc3c2c(=O)[nH]c(=O)n3C)s1 ?
miR-21 FLuc: -12%; Rango complex inh: -1.0%; GLA inh pH 4.5: 2; Rango dissoc inh: 0%

Results for CCCOc1ccc(C2NC(=S)NC(c3ccccc3)=C2C(=O)Nc2ccc(C)cc2)cc1OC (stereo not given) ?
miR-21 FLuc: 9%; Rango complex inh: -1.7%; GLA inh pH 4.5: 3; Rango dissoc inh: 11%

What do the screens show for `CC1COCC(C)N1C1=C(Cl)C(=O)c2ccccc2C1=O` (stereo not given)?
Rango complex inh: 2.0%; Rango dissoc inh: 20%

Results for COc1ccc(OCC(=O)Nc2ccc(S(=O)(=O)N3CCCCCC3)cc2)cc1 ?
miR-21 FLuc: -7%; Rango complex inh: -1.0%; GLA inh pH 4.5: -10; Rango dissoc inh: 1%

What do the screens show for `Cc1cc(C)c(C(=O)Cn2nc(C(=O)O)c3ccccc3c2=O)cc1C`?
miR-21 FLuc: -20%; Rango complex inh: 0.1%; GLA inh pH 4.5: -5; Rango dissoc inh: -16%

How did O=[N+]([O-])c1ccccc1/C=C/c1ccc2ccccc2n1 do in these assays?
miR-21 FLuc: -65%; Rango complex inh: 0.1%; Rango dissoc inh: 3%

What do the screens show for `Cc1ccc(N2C(=O)CC(Nc3cccc4ccccc34)C2=O)cc1` (stereo not given)?
miR-21 FLuc: -13%; Rango complex inh: -1.1%; GLA inh pH 4.5: -2; Rango dissoc inh: 8%

Results for O=C(/C=C/c1cccs1)NCc1cccs1 ?
Rango complex inh: -0.8%; Rango dissoc inh: 18%

How did CCOC(=O)c1cc(NC(=O)N(C)C2CCCCC2)c(C)nc1C do in these assays?
miR-21 FLuc: -1%; Rango complex inh: -1.6%; Rango dissoc inh: -6%

What do the screens show for `CCN(CC)S(=O)(=O)c1ccc(OC)c(NC(=S)Nc2cc(C)ccc2C)c1`?
miR-21 FLuc: -8%; GLA inh pH 4.5: -3

Results for CCOC(=O)Cn1c(N)c(C(=O)OC)sc1=S ?
miR-21 FLuc: 0%; Rango complex inh: 0.0%; GLA inh pH 4.5: 6; Rango dissoc inh: 1%

Results for C=C1[C@H](C)CN[C@H]1CCO ?
Rango complex inh: 2.2%; Rango dissoc inh: 3%

Compound activity (PubChem BioAssay)
